NPYLR7 ag – activates Aedes aegypti NPYLR7 receptor; HEK293T NPYLR7/Galpha15, GCaMP6s calcium fluorescence; activation, % at 10 µM; 0.15% of 270,000 active; AID 1259423; in the data active = activation above about 40%;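 note: 0% = vehicle and 100% = reference agonist at the receptor; some compounds past the cut are filed as inactive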
NPYLR7 ag max-min – also measured in NPYLR7 ag; calls as there; activation, %; measured here: Max-Min RFU normalised activation; some inactives read as strong as hits;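 span of the calcium signal over five minutes; 0% = vehicle and 100% = native peptide agonist; compound fluorescence can raise it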
Starred values were filed as active, the others as inactive; & = joins results of further samples. This is a subset. The share of hits here may be higher or lower than overall.

SMILES	NPYLR7 ag	NPYLR7 ag max-min
CCOC(=O)c1c(NC(=O)c2ccco2)c(-c2cccc(F)c2)cn1Cc1ccccc1	2	-6
CCNC(=O)O[C@H]1C(=O)N(C)C2(CCN(C(=O)Cc3cccs3)CC2)[C@@H]1C(=O)NC	23	28
CC(C)N1C(=O)C(=C(C#N)C(=O)C(C)(C)C)c2ccccc21	4	3
CC(C)CCNC(=O)c1cc2c(=O)n3ccccc3nc2n1C	1	0
COc1ccccc1C(=O)NCCNc1ccc(Nc2ccncc2)nn1	9	-1
COc1ccccc1OCc1cc(C(=O)N(C)C2CCOCC2)n[nH]1	16	11
CCCC(C)NS(=O)(=O)Cc1cccc(N)c1 (stereo unspecified)	1	-1
CNC(=O)c1ccc(CN(CCOC)CC(F)(F)F)cc1	2	1
CCC(O)C(=O)N1CCc2c(nc(C)nc2N(C)C)C1 (stereo unspecified)	7	-1
Cc1ccccc1C1c2ccsc2CCN1C(=O)CN(Cc1ccco1)C(=O)c1ccc([N+](=O)[O-])cc1 (stereo unspecified)	-8	2
CC1CCc2c(sc3nc(SCC(=O)N4CCCC4)n(-c4ccccc4)c(=O)c23)C1 (stereo unspecified)	-6	-11
CC(C)C(=O)N=C1N=C2C=CC(I)=CN2Cc2ccccc21	2	0
CCOC(=O)N1CCN(Cc2nc3c(c(=O)[nH]c(=O)n3C)n2CCc2ccccc2)CC1	6	41
Cc1cc(=O)[nH]c(-n2nc(-c3cccs3)cc2NC(=O)C23CC4CC(CC(C4)C2)C3)n1	9	9
CC(=O)c1ccc(C(=O)N(CCCN(C)C)c2nc3ccc(Cl)cc3s2)cc1	-1	-2

Quoted at random: 3 compounds from above
SMILES	NPYLR7 ag	NPYLR7 ag max-min
Cc1ccccc1C1c2ccsc2CCN1C(=O)CN(Cc1ccco1)C(=O)c1ccc([N+](=O)[O-])cc1 (stereo unspecified)	-8	2
Cc1cc(=O)[nH]c(-n2nc(-c3cccs3)cc2NC(=O)C23CC4CC(CC(C4)C2)C3)n1	9	9
CNC(=O)c1ccc(CN(CCOC)CC(F)(F)F)cc1	2	1

Quoted from the listing.
NPYLR7 ag result of `CC(C)C(=O)N=C1N=C2C=CC(I)=CN2Cc2ccccc21` stands at 2
NPYLR7 ag result of `Cc1ccccc1C1c2ccsc2CCN1C(=O)CN(Cc1ccco1)C(=O)c1ccc([N+](=O)[O-])cc1` (stereo unspecified) stands at -8
NPYLR7 ag max-min result of `COc1ccccc1C(=O)NCCNc1ccc(Nc2ccncc2)nn1` stands at -1
NPYLR7 ag max-min result of `CNC(=O)c1ccc(CN(CCOC)CC(F)(F)F)cc1` stands at 1

Exported with each value named: part of the list above
SMILES: CCOC(=O)N1CCN(Cc2nc3c(c(=O)[nH]c(=O)n3C)n2CCc2ccccc2)CC1
  NPYLR7 ag: 6	NPYLR7 ag max-min: 41
SMILES: Cc1cc(=O)[nH]c(-n2nc(-c3cccs3)cc2NC(=O)C23CC4CC(CC(C4)C2)C3)n1
  NPYLR7 ag: 9	NPYLR7 ag max-min: 9

Next section
SMILES	NPYLR7 ag	NPYLR7 ag max-min
CCOC(=O)C(=CN1N=C(OC(C)=O)C2(CC=C(C)CC2)C1=O)C(=O)OCC (stereo unspecified)	-3	-8
Cc1ccc(NS(=O)(=O)c2c(Cl)cccc2Cl)cc1S(=O)(=O)Nc1ccccc1F	-5	-3
CN(C)C(CNC(=O)N1CCc2ccc(F)cc21)c1ccccc1 (stereo unspecified)	-3	-3
CC1c2cccn2CCN1S(=O)(=O)c1cc(C(F)(F)F)cc(C(F)(F)F)c1 (stereo unspecified)	-6	-9
O=C(NCCCN(C(=O)C1CCC1)C1CC1)c1coc2ccccc12	-4	-5
O=S(=O)(Nc1ccc(-c2ccc(N3CCCCC3)nn2)cc1)c1cccs1	-2	-3
CSc1ccccc1NC(=O)CSc1nnnn1-c1ccccc1	4	1
COCCNC(=O)C1CCCN(C2CCN(Cc3ccc4occc4c3)CC2)C1 (stereo unspecified)	-1	-6
C#CCOCC(O)CN(Cc1cccn1Cc1cccc(OC)c1)CC1CCCCC1 (stereo unspecified)	0	2
CSCc1ccc(C(=O)N(C)CCc2nc3ccc(F)cc3[nH]2)o1	13	9
NC(=O)C(NC1CCC(OCC(F)(F)F)CC1)c1ccccc1 (stereo unspecified)	2	-1
CCCCCC(O)c1nnc(Nc2cc(OC)c(OC)c(OC)c2)s1 (stereo unspecified)	5	5
CCn1ccnc1CN1CCOC(CCCc2ccccc2)C1 (stereo unspecified)	-6	-7
CC(=O)Nn1c(O)c(C2=c3cc([N+](=O)[O-])ccc3=NC2=O)sc1=S	2	11
O=C(CN1CCN(c2ccc3c(c2)OCCO3)C1=O)NCCCn1ccnc1	3	2
CC(C)(C)c1ccc(-c2n[nH]c(=S)n2Cc2ccco2)cc1	-5	-10
CC(C)n1ccc2c(cnc3ncnn32)c1=O	4	7
CCN(CC)c1ccc2cc(C(=O)Nc3cccc(C)c3)c(=O)oc2c1	4	3
O=C(O)C12CC3(Br)CC(Br)(CC(Br)(C3)C1)C2	1	-1
NC(=O)COc1cccc2c1CCCC2=O	4	1
COc1ccc(NC(=O)c2sc(=O)n(Cc3ccc4c(c3)OCO4)c2C)cc1OC	-1	-2
Cc1ccccc1CSc1nnc(CNC(=O)Nc2cc(C(F)(F)F)cc(C(F)(F)F)c2)n1-c1ccc(Cl)cc1Cl	-11	-15
O=C(OCn1nnc2ccccc2c1=O)c1sc2cc(F)ccc2c1Cl	1	2
CC(C)(C)n1nc2c(c1NC(=O)c1cccs1)CSC2	-1	-2
CC(C)(C)c1ccc(O)c(NC(=O)COc2cccc(S(C)(=O)=O)c2)c1	4	1
COCCCNC(=O)c1cc(-c2ccccc2OC)nc2cc(-c3ccccc3)nn12	15	23
Nc1nnnn1CC(=O)N/N=C\c1cn(Cc2ccc(Cl)cc2Cl)c2ccccc12	-10	-14
CC(=O)c1cccc(NS(=O)(=O)c2cc(C(=O)Nc3ccccc3)ccc2Cl)c1	-10	-18
COCCN(Cc1nc(C(=O)N2CCN(c3cccc(C(F)(F)F)c3)CC2)cs1)C(=O)Nc1ccc(OC)cc1	18	16
CCCn1c(SCCOc2ccc(OC)cc2)nc2ccccc21	-4	-5
COc1ccc2c(c1)-c1sc(C(=O)N3CCc4cc(OC)c(OC)cc4C3c3c(F)cccc3Cl)cc1CC2 (stereo unspecified)	21	12
CC(=O)N1CCC(C(=O)Nc2cccc(-c3cccc(-c4ccc(F)cc4F)n3)c2)CC1	8	18
Cc1ccc(CSCC(=O)Nc2cc(C)on2)cc1	-1	-3
CCOC(=O)CCCNC(=O)N1CCN(c2ccc(NC(=O)COC)cn2)CC1	2	7
Cc1cc(C)n(CCNC(=O)CCNC(=O)c2ccccc2F)c(=O)n1	-2	-9
CCN(CC)C(=O)Oc1ccc2c(ccn2Cc2ccccc2)c1-c1cc(C)cc(C)c1	1	-3
COc1cccc(-c2cc(C(=O)NCCN3CCCCC3)nc3cc(C(C)(C)C)nn23)c1	20&-8	24&-7
CC(C)c1ccc(NC2CCCN(C(=O)CN3C(=O)c4ccccc4C3=O)C2)cc1 (stereo unspecified)	-5	-7
CCC1CSC(Nc2ccccc2C(F)(F)F)=N1 (stereo unspecified)	-12&-3	-14&-8
CC(C)CCN(CC(=O)Nc1cc(-c2ccccc2)nn1-c1ccc(F)cc1)S(=O)(=O)c1ccc(F)cc1	0	5
CCN(CC)c1ncccc1CNC(=O)Nc1ccc2c(c1)OCO2	5	5
CCOc1ccc(-c2cc3c(=O)n(CC(=O)Nc4ccc5c(c4)OCCO5)ccn3n2)cc1	4	3
CCCCN(CCCC)CCNC(=O)c1cnn(-c2cc(F)ccc2F)c1N	1	16
CCC(C)C(NC(=O)Nc1cccc(OC)c1)C(=O)Nc1nnc(-c2cccc(Br)c2)s1 (stereo unspecified)	17	7
COC(=O)Cn1c(O)c(N=NC(=O)CNC(=O)c2ccccn2)c2ccccc21	9	15

Single records, from the list above. Order of values: NPYLR7 ag, NPYLR7 ag max-min
O=C(NCCCN(C(=O)C1CCC1)C1CC1)c1coc2ccccc12 as listed: -4, -5
Nc1nnnn1CC(=O)N/N=C\c1cn(Cc2ccc(Cl)cc2Cl)c2ccccc12 as listed: -10, -14
CCN(CC)c1ncccc1CNC(=O)Nc1ccc2c(c1)OCO2 as listed: 5, 5

Further compounds
SMILES	NPYLR7 ag	NPYLR7 ag max-min
COc1cccc(-c2nc3c(OCc4ccccc4)cccn3c2NC(C)(C)CC(C)(C)C)c1	6	6
CCOc1ccc(C(c2c(O)cc(C)n(CCOC)c2=O)N2CCN(c3ccccc3F)CC2)cc1 (stereo unspecified)	10	2
COCc1cc(C)nc(NN=Cc2ccc(-c3ccc(Cl)c(C(=O)O)c3)o2)c1C#N	7	-5
COc1cccc(OCC(=O)NS(=O)(=O)C2=Cc3ccccc3CC2)c1	4	2
CC(C)(C)c1cc(NC(=O)CN(Cc2ccccc2)C(=O)/C=C/c2ccc([N+](=O)[O-])cc2)n(-c2ccccc2)n1	8	18
O=C(NCc1ccccn1)C1CC=CCC1C(=O)N1CCc2ccccc2C1 (stereo unspecified)	-11	-18
c1ccc(-c2ncn(CC3CCNCC3)c2-c2ccc(-c3ccn[nH]3)o2)cc1	19	9
CCCCCCn1c(CN2CC(C)OC(C)C2)nc2c1c(=O)n(C)c(=O)n2C (stereo unspecified)	7	3
CCOc1ccccc1NC(=O)CSc1nc(=O)n(CCCN2CCOCC2)c2c1CCC2	0	-6
COc1cnc(N2C[C@H]3CC=CC[C@H]3C2)nc1	2	1
Cn1c(=O)c2c(nc(CN3CCc4ccccc4C3)n2CCCO)n(C)c1=O	1	22
CCCC(CCC)C(=O)N1CCN(c2ccc(NCc3ccccc3)nn2)CC1	0	-1
O=c1c2c(n3nnnc3n1-c1ccccc1)-c1ccccc1CC21CCCCC1	2	1
COc1ccccc1C1CN(CCNC(=O)Cc2cccs2)Cc2ccccc2O1 (stereo unspecified)	18	3
O=C(c1cccc2c1OCC2)N1CC[C@@H](c2ccc3c(c2)OCO3)[C@H](O)C1	2	1
COc1ccc(C)cc1C(=O)NCC1CCN(Cc2cccnc2)C1 (stereo unspecified)	-2	0
CCc1nnc(SCc2ccc(CSc3nnc(CC)n3N)cc2)n1N	-11	-13
CC(C)CC(=O)Nc1nc(C(F)(F)F)cs1	-5	-4
Cc1ccc(C2(CC#N)CCOC(C(C)C)C2)cc1 (stereo unspecified)	0	-1
CCc1nc2ccc(C(=O)N(C)CCN(C)C)cn2c1N(C)Cc1nccs1	11	-6
COCCOCC(=O)N1CCN(C(c2ccccc2)c2ccc(Cl)cc2)CC1 (stereo unspecified)	-4	-4
S=C(NCC1CCCO1)NN=Cc1cc2c(cc1Br)OCO2 (stereo unspecified)	0	-2
S=c1[nH]nc(-c2ccncc2)n1-c1ccc(Cl)c(Cl)c1	13	10
Cn1cc(NC(=O)NC2(c3ccccc3)CCC2)ccc1=O	16	11
COc1ccc2cc(/C=C/C(=O)N3CCNC(=O)C3c3c(C)nn(-c4ccccc4)c3C)ccc2c1 (stereo unspecified)	4	6
O=C(CSc1ccccc1)N1CCc2onc(-c3ccc(Cl)cc3)c2C1	8	4
Cc1ccc(C)c(OCCN(C)C(=O)CC2COCCN2)c1 (stereo unspecified)	-1	-3
COCc1ccccc1CNS(=O)(=O)c1cccc(Cl)c1C	2	0
O=C(NC1=NCCS1)c1sc(-c2ccco2)nc1-c1ccccc1	0	-2
COc1ccccc1C1=NN(C(=O)c2ccccc2)C(c2ccc(Br)cc2)C1 (stereo unspecified)	-3	-9
CC(C)c1ccc(CN2CCC2(C)C(=O)Nc2cccc(Oc3ccccc3)c2)cc1 (stereo unspecified)	5	2
O=C1CC2CS(=O)(=O)CC2N1c1cccc(C(F)(F)F)c1 (stereo unspecified)	-1	14
CCOC(=O)Cc1csc(NC(=O)CSc2nnc(-c3ccncc3)n2-c2ccc(F)cc2)n1	1	0
Cc1ccc(N2CCNC(C)C2=O)c(C)c1 (stereo unspecified)	0	7
O=C(Cc1cccs1)N(CCn1cccn1)c1nc2ccccc2s1	3	1
CCc1ccc(NC(=O)Cn2c(-c3nnc(CC)o3)cc3ccccc32)cc1	1	0
Cn1cc(/C=C/C(=O)Nc2cc(C3CCC(C(C)(C)C)CC3)[nH]n2)c(=O)n(C)c1=O (stereo unspecified)	9	6
Cc1cc(C(=O)NN=CC2CCCCC2)c(C)o1	2	3
Cn1nc2n(c1=O)CC(C(=O)N1C[C@@H]3[C@H](C1)[C@H]1CC[C@@H]3O1)CC2 (stereo partly specified)	-1	-2
Cn1ccnc1CN(C(=O)c1cccc(Cn2cccn2)c1)C1CC1	0	0
O=C(Nc1ccnn1C1CCN(C(=O)C23CC4CC(CC(C4)C2)C3)CC1)C1CCOC1 (stereo unspecified)	2	0
Cc1cc(C)n(-c2cc(N3CCN(C(=O)c4ccco4)CC3)ncn2)n1	-7	-8
O=c1oc2ccccc2c(Nc2ccccc2)c1[N+](=O)[O-]	0	-4
O=C(c1ccc(-c2ccccc2)cc1)C1CCCN(C(=O)c2ccc3nccnc3c2)C1 (stereo unspecified)	4	5
Cc1nc(NCCO)c2c3c(sc2n1)CCCC3	-3	-6
COc1ccc(C=C2NC(=S)N(Cc3ccco3)C2=O)cc1	7	11
CC(C)(C)c1cc2nc(-c3ccccc3F)cc(C(=O)NCCN3CCCCC3)n2n1	12	16
Cc1c(CCC#N)c(N2CCCC2)n2c(nc3ccccc32)c1C#N	23	26
CCOc1ccc(CN2CCC(n3nccc3NC(=O)Cc3ccccc3)CC2)cc1	1	-3
O=C(c1ccccc1)C1CCN(C(=O)C2CCC(=O)N(CCN3CCOCC3)C2)CC1 (stereo unspecified)	4&1	4&1
O=C(Nc1nnc(C2CC2)s1)c1cc2c(s1)CCCC2	15	11
Cc1cc(C(=O)N2CCC(n3cnc4ccccc43)CC2)no1	-6	-3
CCCCN1CCCCC1C(=O)Nc1c(C)cccc1C (stereo unspecified)	-13&-10&-1	-19&-15&-6
CCc1cc(NC2CCCC2C#N)nc(-c2ccncc2)n1 (stereo unspecified)	-4	-6
Cc1nc2ncccc2cc1C(=O)N1CCC2(CCNC(=O)CC2)CC1	55*	45*
CCCCOc1ccccc1-c1cc2c(SCC(=O)Nc3ccc(C(C)=O)cc3)nccn2n1	1	-5
COc1ccc(N(C)C(=O)C(C)NC(=O)CC2CCCCC2)cn1 (stereo unspecified)	1	0

Screening data deposited in PubChem by Fisher Drug Discovery Resource Center.
